# INS promoter inh: TRM-6 insulin promoter activity inhibition | TRM-6 cells (human fetal islet line), insulin promoter-eGFP reporter, imaging; reporter expression induced with tamoxifen | 130,000 tested, 0.9% active | inhibition, % at 2 µM;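 active = inhibition above the mean plus 3 SD, with well images judged a real hit on visual review, cut at about 60% in these data, passing the limit was not always enough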
# PKD1 kinase inh: inhibitors of human PKD1 kinase. 200,000 tested, 0.056% active. Q15139. inhibition, %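 (about 10 µM by stock and volumes)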. AID 797. PKD1 kinase fluorescence polarization assay;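 active = inhibition of 50% or more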;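 also: controls were vehicle for no effect and a reference inhibitor for full effect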
# GALR2 agonist: activates the human galanin receptor 2 | O43603 | GALR2-expressing cells, agonist activation read-out | activation, %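 (tested at 5 µM)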 | 140,000 tested, 0.48% active | AID 803;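 active = above mean plus 3 SD of all compounds, about 5% in these data, not always enough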;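 also: 0% = vehicle buffer wells and 100% = reference agonist at full effect; tested in CHO reporter cells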
# Target sequence (O43603 whole entry, looked up): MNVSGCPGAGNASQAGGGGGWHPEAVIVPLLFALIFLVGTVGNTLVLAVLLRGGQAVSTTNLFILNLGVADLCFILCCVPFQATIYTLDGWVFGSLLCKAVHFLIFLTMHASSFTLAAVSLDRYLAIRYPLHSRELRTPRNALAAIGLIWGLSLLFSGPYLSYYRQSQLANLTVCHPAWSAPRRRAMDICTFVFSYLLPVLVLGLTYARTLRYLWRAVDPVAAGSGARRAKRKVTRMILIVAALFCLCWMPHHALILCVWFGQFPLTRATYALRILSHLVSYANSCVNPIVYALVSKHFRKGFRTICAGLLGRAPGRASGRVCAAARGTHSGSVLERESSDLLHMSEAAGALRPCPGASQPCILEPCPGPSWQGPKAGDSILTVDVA
# RGS16-Gao: modulates binding between human RGS16 and Galphao. bead-based flow cytometry RGS16-Galphao binding, fluorescence; actives lie on both sides. AID 1441. O15492+P09471. 220,000 tested, 0.38% active. binding response (% of control), % at 10 µM;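 active = below 25% or above 175%, edge rows of some plates excepted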;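 also: Galphao activated by GDP with aluminum fluoride before binding; 100% = wells without compound and 0% = beads without RGS; some results beyond the cut were filed as inactive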
# Target sequence (O15492 whole entry, looked up): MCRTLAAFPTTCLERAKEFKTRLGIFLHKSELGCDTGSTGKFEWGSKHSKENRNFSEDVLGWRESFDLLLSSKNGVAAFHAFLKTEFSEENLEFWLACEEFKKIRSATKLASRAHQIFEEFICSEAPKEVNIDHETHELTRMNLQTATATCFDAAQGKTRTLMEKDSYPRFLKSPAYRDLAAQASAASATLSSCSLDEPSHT
# Target sequence (P09471 whole entry, looked up): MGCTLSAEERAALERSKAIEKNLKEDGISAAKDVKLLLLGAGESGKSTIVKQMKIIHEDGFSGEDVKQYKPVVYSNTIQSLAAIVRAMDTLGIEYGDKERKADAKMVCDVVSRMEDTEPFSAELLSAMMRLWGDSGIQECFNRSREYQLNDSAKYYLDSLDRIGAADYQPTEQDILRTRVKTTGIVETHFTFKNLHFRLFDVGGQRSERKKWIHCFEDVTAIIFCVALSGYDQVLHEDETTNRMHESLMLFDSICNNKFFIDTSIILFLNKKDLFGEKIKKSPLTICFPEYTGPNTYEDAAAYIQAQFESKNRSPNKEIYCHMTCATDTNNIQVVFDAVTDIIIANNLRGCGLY
# HSV replic up: increases HSV replication in cells; HSV replication augmentation in cells, fold increase; 220,000 tested, 0.005% active; AID 1956; maximum fold increase;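 active = peak rise of 1.5-fold or more in the series; tested in PC3 cells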;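 also: first round at 10 µM; read as green reporter fluorescence; hits show the peak of a series up to 25 µM; 1 = signal of infected wells without compound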
# INS promoter inh cell count: second read-out of INS promoter inh, no call of its own (marks repeat the call); normalized cell count, %; measured here: cell count, toxicity; reference of the scale not given here;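 cells exposed to compound for 48 h; stained nuclei by imaging scaled within each plate; lower means fewer cells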
# HSV replic up primary fold: recorded beside HSV replic up, whose call it bears; fold increase; compound at 10 µM; measured here: primary screen fold increase 10 uM; tested in PC3 cells;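 GFP signal in the first replicate; 1 = infected wells without compound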
# * = called active by the depositor; i = inactive; · = no result given.
Molecule	INS promoter inh	INS promoter inh cell count	PKD1 kinase inh	GALR2 agonist	RGS16-Gao	HSV replic up	HSV replic up primary fold
COc1cccc2c(=O)n(CC(=O)N3CCC(C)CC3)ccc12	·	·	-9	-0.2	109	i	0.92
O=C(O)CCCCn1c(SCc2ccccc2Cl)nc2ccsc2c1=O	·	·	10	·	95	i	0.86
Cc1ccc(NCc2nnc(SCC(=O)c3ccc4c(c3)OCCO4)o2)c(C)c1	-18	67	-2	-1.3	104	i	0.86
COc1cc2c(cc1OC)CN(C(=O)C(C)(C)C)CC2	-19	59	6	-1.2	75	i	0.79
O=C(CCS(=O)(=O)c1ccccc1)Nc1nc2cc3c(cc2s1)OCO3	·	·	·	·	107	i	0.97
C=CCN(c1ccccc1OC)S(=O)(=O)c1cccc(C(=O)OCC(=O)c2c[nH]c3ccccc23)c1	-30	70	-10	0.0	100	i	0.77
CCOc1cc(C2C(C#N)=C(N)Oc3n[nH]c(-c4ccncc4)c32)cc([N+](=O)[O-])c1O (stereo unspecified)	-55	13	-2	·	58	i	0.95
CN(C)CCN1C(=O)C(O)=C(C(=O)c2cc3ccccc3o2)C1c1cccc(Br)c1 (stereo unspecified)	34	119	2	-1.0	106	i	0.73
CC[C@@H](C)[C@H](NC(=O)OC(C)(C)C)c1nnc(S(=O)(=O)Cc2cc(C)ccc2C)o1	72*	56*	-10	0.8	92	i	0.62
CCCNC(=O)c1ccc(SC)cc1OC	·	·	-5	-2.1	108	i	0.94
COc1ccc[nH]c1=O	-155	135	-12	-1.5	105	·	·
Cc1cccc(-n2ccnc2SCC(=O)O)c1C	17	102	-2	·	100	i	1.1
CC(C)c1ccc(S(=O)(=O)N2CCN(CCC(=O)Nc3ccc(N(C)C)cc3)CC2)cc1	-55	99	-2	2.0	104	i	0.83
O=C(c1ccc(Br)cc1)N1CCCC1	-23	95	-1	-2.0	101	i	0.96
CCOC(=O)C(Cc1c[nH]c2ccccc12)NC(=O)CNC(C)=O (stereo unspecified)	·	·	-17	-0.7	106	i	0.98
COC(=O)CC(NC(=O)c1ccc(C)cc1)c1ccc2c(c1)OCO2 (stereo unspecified)	-29	178	-2	-2.5	101	i	0.89
CCOC(=O)CC1C(C(=O)OCC)ON2OC(C(=O)OC)C(C(=O)OCC)C12 (stereo unspecified)	-3	97	7	-1.5	97	i	0.97
COC(=O)[C@H](Cc1ccccc1)NC(=O)N(C)Cc1ccccc1	·	·	·	·	101	i	1.1
Cc1nn(C)c(C(=O)Sc2ccccc2)c1[N+](=O)[O-]	·	·	·	·	100	i	1
O=C(Nc1ccc(S(=O)(=O)N2CCCC2)cc1)C1CC(=O)N(c2ccccc2)C1 (stereo unspecified)	·	·	5	·	99	i	0.92
COc1cc(NC(=O)CN2CCN(c3ccccc3O)CC2)c(C)cc1[N+](=O)[O-]	17	96	-4	-0.5	116	i	0.86
Cc1c(/C=N/NC(=O)c2sc3ccccc3c2Cl)cnn1C	·	·	1	-2.6	94	i	1
CCOC(=O)c1[nH]nc(-c2cc(CC)c(O)cc2O)c1-c1cscn1	54	120	2	-1.5	91	i	0.85
COc1ccc(OCCNC(=O)Nc2cc(F)c(F)cc2Cl)cc1	·	·	-8	·	102	i	1
Fc1ccc(NC(=S)NCc2cccs2)cc1	54	98	11	-1.2	81	i	1.1
COc1ccc2[nH]c(=O)c(-c3nnn(-c4ccccc4)n3)cc2c1	·	·	2	·	95	i	0.77
COc1ccc(/C=N/NC(=O)c2cccc(NC(=O)c3ccc(F)cc3)c2)c(C(=O)O)c1OC	43	71	0	·	89	i	0.87
CCCN(CCC)CCNC(=O)C1c2ccccc2C(=O)N(CCOC)C1c1ccc(F)cc1 (stereo unspecified)	-53	70	8	-1.0	160	i	0.99
COc1ccc(OCC(O)Cn2c(=N)n(CCN3CCOCC3)c3ccccc32)cc1 (stereo unspecified)	-64	92	-8	-2.6	99	i	1
COc1ccc(CN2C(=O)c3cccnc3C2O)cc1 (stereo unspecified)	14	138	2	-3.3	96	i	0.97
CCOc1ccc(N(CC(=O)NCc2cccc(OC)c2)S(=O)(=O)c2c(C)noc2C)cc1	-4	47	-9	0.8	99	i	0.89
CCOc1ccc2[nH]cc(S(=O)(=O)c3ccc(Cl)cc3)c(=O)c2c1	·	·	-4	·	103	i	1
COC(=O)c1sccc1NC(=O)C1C2C=CC(O2)C1C(=O)O (stereo unspecified)	56	113	-21	-1.4	110	i	1.1
C#CCNc1nc(C)nc2c1nnn2Cc1ccccc1F	·	·	-6	-2.5	103	i	0.94
CSc1nc2ccccc2n1Cc1c(Cl)cccc1Cl	41	61	3	-0.4	99	i	1.1
CN1CCN(C(=O)C2CCC(CNS(=O)(=O)c3cccc4cccnc34)CC2)CC1 (stereo unspecified)	·	·	-9	-1.3	106	i	0.82
CC(C)NC(=O)C1CCN(C(=O)C(C(=O)c2ccccc2)n2cc(Cl)ccc2=O)CC1 (stereo unspecified)	-6	105	-13	-1.6	98	i	0.91
Cc1ccc(C)c(CSc2nnc(C)c(=O)[nH]2)c1	22	53	-4	·	88	i	1
CCOc1ccc(C(CC(=O)O)NS(=O)(=O)c2ccc(C)cc2)cc1OC (stereo unspecified)	28	63	-1	-0.8	96	·	·
COc1ccc(CN(C(=O)c2cccc(OC)c2)C2CCS(=O)(=O)C2)cc1 (stereo unspecified)	·	·	·	·	99	i	1.3
O=C1COc2ccc(S(=O)(=O)N3CCc4ccccc43)cc2N1	·	·	·	·	100	i	1
CCOC(=O)c1sc(NC(=O)c2cc(S(=O)(=O)N3CCOCC3)ccc2C)nc1C	-40	137	-4	-0.8	103	i	1
COc1ccccc1N(CC(=O)NCC1CCCO1)C(=O)Cn1nnc(-c2cccs2)n1 (stereo unspecified)	8	69	6	·	108	i	0.95
CN(C)S(=O)(=O)c1cccc(NC(=O)COC(=O)/C=C/c2ccco2)c1	·	·	-2	-0.9	97	i	1.1
COc1ccc(OC)c2c1sc(=NC(=O)c1cccc(N3C(=O)CCC3=O)c1)n2C	·	·	-10	-1.7	105	i	0.8
COc1cccc(-c2nc(N)nc(SC)c2C#N)c1	·	·	·	·	94	i	1
CCO[C@H]1OC(C(=O)O)=C[C@@H](c2ccc3c(c2)OCO3)[C@@H]1CCCO	·	·	-3	·	101	i	0.81
Nc1nc(CSCc2ccccc2)nc(N2CCOCC2)n1	-23	76	-1	-0.8	103	i	0.92
COCCCn1c(SCC(=O)N2CCc3ccccc32)nnc1-c1ccoc1C	-25	133	-13	0.0	·	i	0.77
COC(=O)c1ccc(C23CC4(C2)[C@H](CN(Cc2ccc(C(F)(F)F)cc2)[C@@H]4c2ccccc2)C3c2ccc(Cl)nc2)cc1 (stereo partly specified)	·	·	·	·	98	i	0.89
Cc1nnc(-c2ccco2)c2cn(-c3cccc(Br)c3)nc12	-58	79	3	-1.2	107	i	1.1
CC1(C)Cc2c(c(N3CCOCC3)nc3sc4c(NCC5CCCO5)nnnc4c23)CS1 (stereo unspecified)	·	·	·	·	108	i	0.89
O=C(NCCN1CCN(c2ccccc2)CC1)c1cccn2c(=O)c3ccccc3nc12	-29	146	4	1.5	98	i	0.82
Cc1ccc(S(=O)(=O)CCC(=O)NCc2ccccc2Cl)cc1	-11	88	14	0.4	144	i	0.89
Cc1ccc(-c2cnn(-c3cccc(C(F)(F)F)c3)c2N)cc1	·	·	7	-1.2	101	i	0.86
C/C(Cc1ccccc1)=N\NC(=O)CNC(=O)c1ccccc1O	·	·	·	·	103	i	1
Cc1ccc(NC(=O)CSCC(=O)N2CCOCC2)cc1	-418	45	-8	-1.4	98	i	0.89
CCC(C)Nc1c2c(nc3c(-c4ccccc4)c(C)nn13)CCC2 (stereo unspecified)	19	328	1	-1.5	100	i	0.97
CCOC(=O)Cc1csc(NC(=O)NC2(C(F)(F)F)Oc3ccc(Cl)cc3O2)n1 (stereo unspecified)	-48	102	6	-2.1	93	i	0.93
COC(=O)c1ccc(CSc2nnc(-c3ccc4c(c3)OCO4)n2-c2ccccc2)o1	-33	118	0	-0.5	104	i	0.95

# In a second layout: two of the compounds above.
CCOc1ccc(C(CC(=O)O)NS(=O)(=O)c2ccc(C)cc2)cc1OC (stereo unspecified)
  INS promoter inh: 28; INS promoter inh cell count: 63; PKD1 kinase inh: -1; GALR2 agonist: -0.8; RGS16-Gao: 96; HSV replic up: ·; HSV replic up primary fold: ·
COc1ccc(CN(C(=O)c2cccc(OC)c2)C2CCS(=O)(=O)C2)cc1 (stereo unspecified)
  INS promoter inh: ·; INS promoter inh cell count: ·; PKD1 kinase inh: ·; GALR2 agonist: ·; RGS16-Gao: 99; HSV replic up: i; HSV replic up primary fold: 1.3

# The listing continues:
Molecule	INS promoter inh	INS promoter inh cell count	PKD1 kinase inh	GALR2 agonist	RGS16-Gao	HSV replic up	HSV replic up primary fold
Clc1ccc(-c2cn(-c3ccc(Cl)cc3)c3[n+]2CCCCC3)cc1	·	·	·	·	101	i	0.97
Cc1cc(Nc2ccccc2)n(-c2ccc(Br)cc2)n1	26	117	6	-2.9	78	i	0.78
COc1cccc(NC(=S)N2CCCC2c2ccc(OC)c(OC)c2)c1 (stereo unspecified)	·	·	2	·	97	i	0.93
Cc1ccc(C(C(=O)NCCc2ccccc2)N(C(=O)c2csnn2)C2CC2)o1 (stereo unspecified)	3	78	-12	-0.4	105	i	0.83
Cc1ccc(S(=O)(=O)N2C(=O)/C(=C3\SC(=S)NC3=O)c3ccccc32)cc1	·	·	·	·	102	i	0.95
Oc1ccccc1/C=N/n1cnnc1	-31	72	-2	-0.2	99	i	1
COc1cccc(/C=N/Nc2nn3cnnc3c3ccccc23)c1	8	135	-1	-1.1	105	i	1
CCOC(=O)CCCc1sc(N)nc1-c1[nH]c(=O)[nH]c1C	·	·	-9	0.1	102	i	1.2
C=CCN1C(=O)/C(=C/c2ccc(N(C)C)cc2)S/C1=N\c1nnc(CC)s1	-163	89	-9	-2.2	124	·	·
Cc1ccc(C)c(-n2ccnc2SCC(N)=O)c1	·	·	1	·	103	i	0.81
CC1(C)CC(=O)C(C=NCC2CCNCC2)=C(O)C1	42	168	0	1.1	116	i	0.93
Cc1csc2nc(CNS(=O)(=O)c3cccnc3)cn12	-86	135	-8	-1.7	·	i	1.3
COc1ccc(-n2c(SCC#N)nc3ccccc3c2=O)cc1	-33	158	-7	0.5	103	i	0.9
COc1ccc(NC(NC(=O)c2ccc(OC)cc2)C(Cl)(Cl)Cl)cc1 (stereo unspecified)	19	94	-4	-2.0	101	·	·
COc1cc(SC)ccc1C(=O)Nc1ccc(C)cc1C	24	111	-8	-0.6	85	i	0.92
O=C(COc1ccccc1F)Nc1ccc(S(=O)(=O)NCc2ccco2)cc1	-29	95	9	-3.3	103	i	0.98
CCC1Oc2ccc(C)cc2N(CC(=O)N(Cc2ccc(C)o2)C2CC(C)(C)NC(C)(C)C2)C1=O (stereo unspecified)	-281	70	10	-0.3	129	i	0.79

# In the list so far, 9 have an NH in an aromatic ring:
Molecule	INS promoter inh	INS promoter inh cell count	PKD1 kinase inh	GALR2 agonist	RGS16-Gao	HSV replic up	HSV replic up primary fold
C=CCN(c1ccccc1OC)S(=O)(=O)c1cccc(C(=O)OCC(=O)c2c[nH]c3ccccc23)c1	-30	70	-10	0.0	100	i	0.77
CCOc1cc(C2C(C#N)=C(N)Oc3n[nH]c(-c4ccncc4)c32)cc([N+](=O)[O-])c1O (stereo unspecified)	-55	13	-2	·	58	i	0.95
COc1ccc[nH]c1=O	-155	135	-12	-1.5	105	·	·
CCOC(=O)C(Cc1c[nH]c2ccccc12)NC(=O)CNC(C)=O (stereo unspecified)	·	·	-17	-0.7	106	i	0.98
CCOC(=O)c1[nH]nc(-c2cc(CC)c(O)cc2O)c1-c1cscn1	54	120	2	-1.5	91	i	0.85
COc1ccc2[nH]c(=O)c(-c3nnn(-c4ccccc4)n3)cc2c1	·	·	2	·	95	i	0.77
CCOc1ccc2[nH]cc(S(=O)(=O)c3ccc(Cl)cc3)c(=O)c2c1	·	·	-4	·	103	i	1
Cc1ccc(C)c(CSc2nnc(C)c(=O)[nH]2)c1	22	53	-4	·	88	i	1
CCOC(=O)CCCc1sc(N)nc1-c1[nH]c(=O)[nH]c1C	·	·	-9	0.1	102	i	1.2

# Assay outcomes: PubChem, several laboratories
